CapD inh – CapD enzyme inhibition; purified CapD enzyme, fluorescence intensity read-out; hits give low values; some hits fall short of the stated cut; z-score (no concentration beside the values); 0.23% of 140,000 active; AID 492967;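 active = z-score under -4 in either of two replicates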;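 note: stock transfer was 100 nL into about 40 µL; score is relative to mean and spread of the plate; one replicate is shown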
AID504770 – growth inhibitors of E. coli YBA685 in a screen for V. cholerae RctB (chromosome II replication) inhibitors. AID 504770. z-score (test concentration not listed). 0.27% of 130,000 active. E. coli YBA685 rctB-dependent plasmid, OD600 growth, 3 h; hits give low values;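 active = z-score under -2 on both plates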;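 note: wells of about 30 µL received 100 nL stock; score is relative to mean and SD of the test wells; the first replicate is given; strong numbers were not always called active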
* = called active by the depositor; · = no result given. An unsorted share of the library; 0.39% or so of the library scored in one or more.

SMILES	CapD inh	AID504770
Nn1c(CSCc2ccccc2)nnc1CSCc1ccccc1	-0.225	0
Cc1ccc(N/C=C(/C#N)c2ccsc2)cc1	-1.99	-1.15
Cc1cccc(OCC(=O)Oc2ccc(Cl)cc2NC2=NS(=O)(=O)c3ccccc32)c1	-0.165	·
CSC(=S)N(c1ccccc1)c1ccccc1	-1.29	0.45
CCOC(=O)/C(=N\Nc1ccccc1C(F)(F)F)N1CCOCC1	·	-0.05
Cc1cc(C)n(C(=O)CSc2nc(-c3ccccc3)cc(C(F)(F)F)c2C#N)n1	-0.905	·
CCN(Cc1cc2cc3c(cc2[nH]c1=O)OCCO3)c1ccc2c(c1)OCCO2	8.43	-0.2
CN1CCN(Cc2c(O)ccc3c(-c4ccccc4)cc(=O)oc23)CC1	0.48	-0.4
O=C1CCC(C(=O)O)C(Cc2ccccc2)C1 (stereo unspecified)	-0.055	-0.4
C=CCn1c(SCC(=O)Nc2cc(OC)c(NC(=O)c3ccco3)cc2OC)nnc1-c1ccncc1	·	1.35
COc1cc(C2C(C(=O)OCC(C)C)=C(C)NC3=C2C(=O)CC(c2ccccc2)C3)ccc1OC(C)=O (stereo unspecified)	65.3	·
CC(Sc1nc2ccccc2c(=O)n1Cc1ccco1)C(=O)NCc1ccc2c(c1)OCO2 (stereo unspecified)	·	1.8
O=C(Nc1sc2c(c1C(=O)NCc1ccco1)CCC2)c1cccs1	·	0.3
O=C(/C=C/c1ccccc1)OCc1nc2ccccc2s1	0.95	-0.9
COC(=O)c1ccccc1N=CNO	3.63	-0.7
S=C(NCc1ccccc1)NC(Cc1ccccc1)c1ccccc1 (stereo unspecified)	-0.05	0
CCN(C(=O)CSc1ccc(Br)cc1)c1ccccc1	-0.135	2.1
CCCCn1c(=O)c2oc3ccccc3c2n(CC(=O)Nc2cccc(OC)c2)c1=O	0.885	-1.15
CCc1c(C)c2ccc(O)c(CN(C)C)c2oc1=O	91.1	0.1
CCSCCOC(=O)C1=C(C)NC2=C(C(=O)CC(c3ccc(OC)cc3)C2)C1c1cc(Cl)c(O)c(OC)c1 (stereo unspecified)	9.68	·
COc1ccccc1-n1cc(-c2ccccc2)c2c(SCC(C)C)ncnc21	0.31	·
COCc1cc(=O)oc2cc(N)ccc12	107	·
O=C(c1cc(S(=O)(=O)N2CCCC2=O)c(Cl)cc1Cl)N1CCCCC1	0.565	-0.2
CCOc1ccc(N2C(=O)NC(=O)/C(=C/c3cn(CC(=O)Nc4ccccc4)c4ccccc34)C2=O)cc1	-0.26	·
CCOC(=O)N1CCN(C(=S)NC(=O)c2ccc(F)cc2)CC1	-0.3	-0.8
O=C(NCc1ccccc1Cl)c1ccc(Cn2cc(Cl)cn2)cc1	0.38	0.1
Cc1cc(/C(O)=C2\C(=O)C(=O)N(CCCN(C)C)C2c2ccc(O)cc2)ccc1OCC(C)C (stereo unspecified)	·	2.15
Cc1cc(C)c(OC2CN(C(c3ccccc3)c3ccccc3)C2)c(C)c1	-0.275	-0.65
CCOC(=O)c1ccccc1NC(=O)c1sc(NC(=O)COc2ccc(Cl)cc2C)c(C(=O)OCC)c1C	0.435	·
CC(C)C(=O)NCCc1ccc(S(N)(=O)=O)cc1	·	1.25
CCOc1ccc(NC2=NC(C)(C)N=C(N)N2)cc1	0.55	0.5
O=C(CNC(=O)c1ccc(Br)o1)NC1CCCc2ccccc21 (stereo unspecified)	·	-0.1
Cc1c(CC(Cl)(Cl)Cl)c2c(n1CCC(=O)O)CC(C)(C)CC2=O	0.045	·
CCOc1ccc2c(c1)C1C=CCC1C(c1ccc(C(=O)OC)cc1)N2 (stereo unspecified)	0.235	0
CCOC(=O)c1c(-c2cccs2)csc1NC(=O)CSc1nncn1C	·	-0.1
CCCn1cnc2cc(NCc3ccccc3O)ccc21	-0.4	-0.35
CCOC(=O)COc1ccc(-c2nn[nH]n2)cc1	-0.015	-0.85
O=C(NC(=S)NCc1cccs1)c1cccs1	-0.195	0.7
CN(Cc1ccccc1)S(=O)(=O)c1cc2c3c(c1)CCN3C(=O)CC2	·	-1.6
Cc1ccc(NC(=O)CC2SC(=NC3CCCC3)NC2=O)cc1Cl (stereo unspecified)	·	-0.45

Reprinted from the part before: 5 compounds, then new ones.
SMILES	CapD inh	AID504770
CCCn1cnc2cc(NCc3ccccc3O)ccc21	-0.4	-0.35
CCOC(=O)COc1ccc(-c2nn[nH]n2)cc1	-0.015	-0.85
O=C(NC(=S)NCc1cccs1)c1cccs1	-0.195	0.7
CN(Cc1ccccc1)S(=O)(=O)c1cc2c3c(c1)CCN3C(=O)CC2	·	-1.6
Cc1ccc(NC(=O)CC2SC(=NC3CCCC3)NC2=O)cc1Cl (stereo unspecified)	·	-0.45
CNC(=O)c1cnc2c(c(C)nn2-c2ccccc2)c1Cl	·	0.5
c1ccc2c(c1)NC(CN1CCOCC1)CO2 (stereo unspecified)	0.03	0.6
COC(=O)c1ccc2c(c1)N(CC(=O)N1CCOc3ccc(C)cc31)C(=O)CS2	0.575	0.65
COc1cc(C(=O)c2c(C)c(C)c(C)c(C)c2C)cc(OC)c1OC	1.11	·
CC(C)(C)OC(=O)N1CCOCCN(C(=O)OC(C)(C)C)CCOCC1	0.645	1.15
Cc1ccc(Sc2nc(-c3ccccc3)[nH]c2/C=N/Nc2ccccc2)cc1	-0.055	·
COc1ccc(-c2nn(CCC(=O)O)c3nc(C)cc(C)c23)c(OC)c1	0.365	1.55
Cc1cc(COC(=O)c2ccc3ncsc3c2)no1	·	-0.25
NS(=O)(=O)c1ccc(-c2ccon2)s1	1.03	·
CCC(C)(NC)c1nnnn1-c1ccc(C)cc1 (stereo unspecified)	-0.275	·
COC(=O)Cn1c(=S)[nH]c2ccccc2c1=O	·	-0.55
CCN=c1scc(-c2ccc(F)cc2)n1/N=C(\C)CC(C)C	·	0.25
O=C(Cn1ccc2ccccc2c1=O)NCCC(=O)N1CCN(c2cccc(Cl)c2)CC1	2.88	-0.7
CCOC(=O)C1C(=O)C=C(c2ccco2)CC1c1ccc(F)cc1 (stereo unspecified)	-0.38	-0.8
COc1ccc(CCN2C(=O)C3C4CC(=O)C(c5ccccc54)C3C2=O)cc1OC (stereo unspecified)	0.095	·
COc1cc(/C=C2\C(=N)N3N=C(C)SC3=NC2=O)cc(Cl)c1OCCOc1ccc(NC(C)=O)cc1	-0.55	-0.75
CC1(C)COC(Nc2ccccc2)=N1	-0.36	-1.9
CC(NC(=O)C1CC1(C)C)c1ccccc1 (stereo unspecified)	-0.575	1.7
CCOC(=O)C1C(c2ccccc2)C(C(=O)OCC)S(=O)(=O)CS1(=O)=O (stereo unspecified)	-0.015	·
COc1ccccc1C(=O)Nc1ccc(NC(=O)c2ccccc2)nc1	·	-0.8

Single values from the entries so far.
Reading of S=C(NCc1ccccc1)NC(Cc1ccccc1)c1ccccc1 (stereo unspecified) under AID504770: 0
Reading of COC(=O)c1ccccc1N=CNO under CapD inh: 3.63
Reading of CCOC(=O)c1c(-c2cccs2)csc1NC(=O)CSc1nncn1C under AID504770: -0.1
Reading of CCOC(=O)C1C(c2ccccc2)C(C(=O)OCC)S(=O)(=O)CS1(=O)=O (stereo unspecified) under CapD inh: -0.015
Reading of O=C(Cn1ccc2ccccc2c1=O)NCCC(=O)N1CCN(c2cccc(Cl)c2)CC1 under CapD inh: 2.88
Reading of CCOC(=O)c1ccccc1NC(=O)c1sc(NC(=O)COc2ccc(Cl)cc2C)c(C(=O)OCC)c1C under CapD inh: 0.435

Remaining list, next part:
SMILES	CapD inh	AID504770
CN(C1CCCCC1)S(=O)(=O)c1cc(C(=O)Nc2ccc(Br)cc2)ccc1F	-0.755	·
O=c1c(COCc2cc(C(F)(F)F)cc(C(F)(F)F)c2)cc2cccc3c2n1CCC3	0.62	·
COc1ccc(S(=O)(=O)N(CC(=O)NCc2ccncc2)c2ccc(C)cc2)cc1Br	-0.19	·
Cc1ccc2nc(Cl)c(CC3CC(c4ccccc4)=NN3C(=O)CCCC(=O)O)cc2c1 (stereo unspecified)	-0.325	-0.35
N=C1S/C(=C\c2cn[nH]c2-c2ccc(F)cc2)C(=O)N1c1nonc1N	-1.64	·
O=C1NC(=O)c2cc(S(=O)(=O)N(CCO)CCO)cc3cccc1c23	2.37	-0.35
CC(C)NC(=O)Cn1cnc2c1c(=O)n(C)c(=O)n2C	·	-0.25
COc1ccc(OC)c(-n2c(-c3cc(-c4ccco4)[nH]n3)n[nH]c2=S)c1	·	-0.65
CCN(Cc1ccccc1)S(=O)(=O)c1ccc(-c2cc(C(F)(F)F)no2)s1	-0.045	1.35
CCOC(=O)c1nc(N)c(=O)n(-c2ccc(C(=O)O)cc2)n1	0.385	-0.75
Cc1ccccc1N1CC(O)(c2ccc(Cl)cc2)[N+]2=C1SCCC2 (stereo unspecified)	0.44	·
C=C1N2CCC(CC2)C1(O)c1ccc(C)cc1 (stereo unspecified)	·	-0.85
CC1=NN(c2ccc(C)c(Cl)c2)C(=O)/C1=C\c1cccn1-c1ccc(S(N)(=O)=O)cc1	0.17	·
CCN(CC)S(=O)(=O)c1ccc(/C=C/C(=O)N=c2sccn2C)cc1	·	0.55
Cc1ccc(C(=O)NC(C)C)cc1C	·	-1.2
COc1ccc(/C=C(\NC(=O)c2ccccc2)C(=O)N2CCN(C)CC2)cc1	·	1.05
COc1cc(C(=O)NC2=C(C#N)CCC2)cc(OC)c1OC	-2.08	2.65
CCOC(=O)C1CCCN(C(=O)COc2ccccc2F)C1 (stereo unspecified)	-0.09	0.75
CCCC1C2CC(C)CC=C2C(C#N)=C(N)C1(C#N)C#N (stereo unspecified)	-0.05	-0.95
FC(F)(F)c1ccnc(NCc2ccco2)n1	0.23	-1.2
NC(=O)c1ccc(NC(=O)C#Cc2ccccc2)cc1	-1.06	2.4
CC(C)(C)C(=O)CN1C(=O)C2(OCCO2)c2cc([N+](=O)[O-])ccc21	-0.7	·
COc1ccc(OC)c(C2=NOC(C(=O)Nc3ccc4c(c3)OCO4)C2)c1 (stereo unspecified)	4.32	1.45
O=c1[nH]c2ccc(S(=O)(=O)N3CCc4ccccc43)cc2[nH]c1=O	-1.02	-0.6
Cc1ccccc1OCCSc1nc2ccccc2n1CC(O)CO (stereo unspecified)	-0.29	·
COc1ccc(N(C)C(C)=O)cc1	·	0.55
Cc1ccc(/C=C/C(=O)NC(=S)N2CCN(c3ccc(F)cc3)CC2)cc1	-0.03	-0.3
O=c1c2ccccc2c(/C=N/n2cnnc2)c(O)n1-c1ccccc1	·	-0.65
CCC(C)NC(=O)c1c(-c2c(F)cccc2Cl)noc1C (stereo unspecified)	-0.015	-0.5
COc1ccccc1Oc1ccc(S(=O)(=O)NCc2ccco2)cc1	0.295	-0.45
CC(C)(C)c1ccc(NC(=O)COC(=O)c2ccc(F)cc2F)cc1	-0.185	1.3
O=C(CCOC(Cc1cnccn1)c1ccc(C(F)(F)F)cc1)NC1CCSC1=O (stereo unspecified)	-0.05	·
CCNC(=S)Nc1cc(-c2ccc(Cl)cc2)[nH]n1	·	-0.5
CC(C)CC1NC(=O)NC1=O (stereo unspecified)	-0.48	·
Cc1cc(N(C(=O)c2cnccn2)C(C(=O)NCc2ccccc2)c2cccs2)ccc1-n1cnnn1 (stereo unspecified)	·	-0.4
NC(=O)Cn1c(=O)n(Cc2ccco2)c(=O)c2ccccc21	·	-0.55
CC(C)CNc1cc(Cl)c2noc3c2c1C(=O)c1ccccc1-3	-0.015	1.3
CCCNC(=O)N1CCn2cccc2C1C (stereo unspecified)	0.93	-0.15
Cc1ccc(NC(=O)c2cc3ccccc3oc2=O)cc1C	-0.02	2.9
CC(C)(CNS(=O)(=O)c1ccc2ccccc2c1)N1CCOCC1	·	-1.25
Nc1cc(N)nc(Sc2ncnc3ccccc23)n1	·	-0.75
O=c1[nH]cnc2nn(-c3ccccc3)nc12	53.5	-1.4
O=C1NC(c2cccnc2)Nc2ccccc21 (stereo unspecified)	·	0.3
CC(C)CNC(=O)c1ccc2snnc2c1	-0.745	-0.05
Cc1c(F)cccc1NC(=O)c1cc(=O)n(C)c(=O)n1C	·	-0.15
CC(NS(=O)(=O)c1cccc(C(F)(F)F)c1)C(C)(C)C (stereo unspecified)	0.055	-0.2
O=C(CSc1nnc2ccccn12)NCc1ccco1	1.02	·
CCOC(=O)COc1ccc2c(=O)c(-c3ccc(OC)c(OC)c3)c(C(F)(F)F)oc2c1	0.345	·
COc1ccc(C(=O)OC2CCCCC2=O)cc1OC (stereo unspecified)	·	0
O=C(C1CCCCC1)N(Cc1nc2sc3c(c2c(=O)[nH]1)CCCC3)Cc1cccs1	·	-0.15
COc1ccc(S(=O)(=O)NNc2c(Cl)cc(Cl)cc2Cl)cc1OC	0.55	·
O=C(CCn1c(=O)sc2ccccc21)Nc1ccccc1	0.875	0.05
Cc1ccc(CSc2nc(-c3ccccc3)c(-c3ccccc3)n2C)cc1	0.365	·
Cc1ccc(COc2ccc(C(=O)N/N=C/C=C\c3ccccc3)cc2)cc1	-0.615	·
COc1cc(C2OCC3C(C)C=C(C)C2C3C)ccc1O (stereo unspecified)	0.29	1.65
N#Cc1c(-c2c(Cl)cccc2Cl)noc1/C=C/Nc1ccc(F)cc1F	-0.24	·
COC(=O)c1ccc(CSc2nc3scc(-c4cccs4)c3c(=O)[nH]2)o1	·	0.2
O=C(NCC(=O)N1CCc2ccccc21)c1cccc(Cl)c1	0.095	-0.15
CCOC(=O)c1c(Nc2ccccc2OC)sc(C(=O)c2ccc(Br)cc2)c1N	-0.52	·
O=C(O)CSc1nnc(COc2ccc(Cl)cc2)n1-c1ccc(Br)cc1	0.595	-0.05

2 entries from above, set out differently:
SMILES | CapD inh | AID504770
O=c1[nH]cnc2nn(-c3ccccc3)nc12 | 53.5 | -1.4
O=C1NC(c2cccnc2)Nc2ccccc21 (stereo unspecified) | · | 0.3

An excerpt of these results, as labelled records:
> O=C(NCc1ccccc1Cl)c1ccc(Cn2cc(Cl)cn2)cc1
  CapD inh: 0.38
  AID504770: 0.1
> O=C1CCC(C(=O)O)C(Cc2ccccc2)C1 (stereo unspecified)
  CapD inh: -0.055
  AID504770: -0.4
> CCOC(=O)c1c(-c2cccs2)csc1NC(=O)CSc1nncn1C
  CapD inh: ·
  AID504770: -0.1

Screening results: PubChem BioAssay, ICCB-Longwood Screening Facility, Harvard Medical School
